# Tgondii IFNg – blocks Toxoplasma gondii growth in the presence of IFN-gamma; Toxoplasma gondii growth in IFN-gamma-treated host cells; active compounds read low; reference of the scale not given here; activity change, negative = inhibition, %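 (about 20 µM by stock and volumes)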; hit rate 3.8% among 69,000; AID 1259416;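 active means below -70%; inconclusive means fit judged invalid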;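 further: host cells are HeLa cells infected with Toxoplasma gondii; parasite growth read as luciferase light; one replicate is shown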
# * hit, by the source's call; i = inactive; ? = inconclusive; & = joins results of further samples.
canonical_smiles,Tgondii IFNg
CN1C(=O)c2cc(NC(=O)C3CCOCC3)ccc2OC[C@@H]2O[C@H](CC(=O)NCc3ccccc3F)CC[C@H]21,11.5
CCN1CCN(C(=O)C2=NNC(=O)CC2)C(Cc2cccc(-c3cccs3)c2)C1=O (stereo not drawn),-24.0
CCN(CC)c1ncnc2c1cnn2CC(=O)NC1CCCC1,280.3
C[C@H](CO)N1C[C@H](C)[C@H](CN(C)Cc2ccc(Oc3ccccc3)cc2)OCc2ccccc2-c2ccccc2C1=O,-51.0
CSc1nc(Cl)c(-c2ccccc2)c(N2CCC(C(C)=O)(c3ccccc3)CC2)n1,-66.3
CN(C)c1nc(CNC(=O)C2(c3ccccc3F)CC2)cs1,39.2
CC(=O)N1CCCc2cc(S(=O)(=O)NCc3cc(CC(C)C)no3)ccc21,-37.5
OCc1ccc(-c2nccn2CC2COCCO2)o1 (stereo not drawn),-0.8
O=S(=O)(NCCc1ccc(Cl)cc1)c1cc(Cl)sc1Cl,-51.4
C=CCn1cc(-c2nc3c([nH]2)c(-c2cccnc2)nn3C)c(C)n1,-7.5
CC1CCC(NC(=O)CN2C(=O)CCc3cc(S(=O)(=O)N4CCC(C)CC4)ccc32)CC1 (stereo not drawn),-69.8
Cc1ccc(CNC2=NCCNC23CCN(S(=O)(=O)c2ccc(C)c(C)c2)CC3)cc1,-49.7

# (cont.)
canonical_smiles,Tgondii IFNg
COc1cccc(CC(=O)N2CCC3(CC2)NC(=O)c2ccccc2N3C)c1,-24.7
Cc1ccccc1NC(=O)Cn1c(=O)cc(C(=O)N2CCCCC2)c2ccccc21,6.0
CS(=O)(=O)N1[C@@H]2c3ccc(-c4cccc(F)c4)c(=O)n3C[C@H]1[C@H](CO)[C@H]2C(=O)N1CCCCC1,6.0
Cc1cccc(C2(CNC(=O)c3cccc(Cn4nc(C)cc4C)c3)CCOCC2)c1,10.7
O=C(O)c1nnn(-c2cc(C(F)(F)F)cc(C(F)(F)F)c2)c1-c1ccccc1,-25.5
CSc1nc(N)nc(-c2cnccn2)n1,42.2
Cc1oc(-c2ccc3ccccc3c2)nc1CN1CCN(S(N)(=O)=O)CC1,36.2
COc1ccccc1CCn1cnc2c3cc(C)ccc3n(C)c2c1=O,-11.4
CN(C)C(=O)N1CCOCC2(C1)CN(c1cccc(C#N)c1)C(=O)CO2 (stereo not drawn),11.8
Cc1nnc(NC(=O)c2c(O)c3ccccc3[nH]c2=O)s1,-54.1
O=C(NCCc1ccccc1)[C@@H]1[C@@H](CO)[C@@H]2Cn3c(ccc(-c4cccc(F)c4)c3=O)[C@H]1N2,4.6
Cc1cccc(N2CCN(C(=O)c3csc(C(=O)NC4CC4)n3)CC2)c1,7.2

# New compounds follow
canonical_smiles,Tgondii IFNg
Cc1cnn(Cc2nc(-c3ccc(NC(=O)c4ccccc4F)cc3)oc2C)c1,3.8
CCCn1c(=O)c(C)cn2nc(N)nc12,-64.6&12.7
Cn1nc(-c2ccccn2)c2c1NC(=O)CC2c1c(Cl)nc2sccn12 (stereo not drawn),29.3
Cc1nc(C(C)NC(=O)c2ccc(NC(=O)C3CCC3)cc2)c(C)s1 (stereo not drawn),-1.9
CS(=O)(=O)N1Cc2nccn2CC(COCc2cccnc2)C1 (stereo not drawn),-9.8
CCN1CCC2(CC1)OC(=O)C(C)=C2C(=O)Nc1cc(Cl)c(OC)cc1OC,251.9
CC(=O)c1ccc(N2CCN(Cc3ccc(C)cc3)CC2)nc1,-3.4
CN(C)CC(=O)N1[C@H](C#N)[C@@H](c2ccccc2-c2ccccc2F)[C@H]1CO,14.0
Nc1n[n+]([O-])c2ccccc2[n+]1[O-],37.4
Cc1ccc2nc(C(=O)N3CCN(c4nnc(C(F)(F)F)s4)CC3)cn2c1,1.3
Cc1nc(C(F)(F)F)nc(NCC2(O)CCCNCC2)c1C (stereo not drawn),-0.2
CNS(=O)(=O)CCNCC(=O)NCc1ccccc1F,-0.9

# Next entries follow.
canonical_smiles,Tgondii IFNg
CCc1cc(C(=O)c2ccc(OC)cc2)c(NC(=O)c2nccnc2C(=O)O)s1,18.0
CN1C(=O)CCc2cc(NC(=O)c3ccc(OC(F)(F)F)cc3)ccc21,-33.5
Cc1nn(C)c2oc(=O)cc(-c3ccccc3)c12,3.1
CCn1c(-c2cc(NC(=O)c3cnccn3)n[nH]2)cc2c(OC)cccc21,144.5
CN(C)[C@@H]1C[C@@H](C(=O)O)N(Cc2ccncc2)C1,1.5
Cc1noc(C)c1NC(=O)Nc1cccc(S(N)(=O)=O)c1,-41.4
COc1ccc2c3c(n(C)c2c1)[C@H](CO)N(S(C)(=O)=O)CC31CCN(CC2CCCCC2)CC1,112.3
c1csc(-c2cncc(-c3nnc(-c4cccc5ccccc45)o3)c2)c1,-101.6*
CN1CCC(CN(C)Cc2ccc(C3=CC(C)(C)NC(C)(C)C3)s2)C1 (stereo not drawn),0.6
Cc1ccc(NCN2C(=O)CSC2=O)c(C)c1,-87.7*
Cc1cccc(-n2c(CC#N)n[nH]c2=S)c1,87.4
Fc1ccc(-c2noc(-c3ccc4c(c3)OCO4)n2)cc1,6.4

# (cont.)
canonical_smiles,Tgondii IFNg
CN1CC2(CCCN(C(=O)CCCn3cncn3)CC2)OC1=O (stereo not drawn),1.5
Cc1nc(NC2CCN(CC(=O)NC3CCCCC3)CC2)[nH]c(=O)c1C,29.7
C[C@@H]1CN([C@H](C)CO)C(=O)CCCn2cc(nn2)CO[C@@H]1CN(C)C(=O)Nc1ccc2c(c1)OCO2,i
O=C(COC[C@@H]1CCC2C(CCN2Cc2ccco2)O1)N1CCCC1 (stereo partly drawn),7.1
CC(C)CC(=O)N1CCCC2(CC(C(=O)Nc3ccccc3)=NO2)C1 (stereo not drawn),39.5
CN(C)CCN(Cc1ccccc1)S(=O)(=O)NCc1ccccc1,1.7
CC(NC(=O)c1ccc(-n2cnnc2)cc1)c1ccccc1-n1cccn1 (stereo not drawn),48.7
CCCCCCCCCC(=O)OCC(O)CO (stereo not drawn),-18.7
Cc1cc(NCc2csc(-c3cnccn3)n2)nc(-c2cccnc2)n1,-8.3
CC(C)NC(=O)N1[C@H](CO)[C@H](c2ccccc2)C12CN(C(=O)c1ccccn1)C2,-18.0
O=C(c1ccc(N2CCC(NCc3cccc(Cl)c3)CC2)cc1)N1CCCC(CO)C1 (stereo not drawn),5.5
CO[C@@H]1CCN(S(=O)(=O)C2CC2)[C@H]1Cc1ccccc1,-3.8

# The list continues:
canonical_smiles,Tgondii IFNg
O=C1CCCn2cc(nn2)COC[C@@H](c2ccccc2)N1,-15.8
CC=Cc1ccc2n(c1=O)C[C@@H]1[C@@H](CO)[C@H](C(=O)NCCC)[C@H]2N1Cc1ccccc1OC (mixture of isomers),-9.6
O=C(CS(=O)(=O)c1ccccc1)c1ccc(Cl)cc1,-37.5
COCCCNc1ncnc2c1cnn2-c1cccc(C)c1,149.7
CCS(=O)(=O)N1CCc2ncnc(C3CC3)c2CC1,-2.5
COc1ccc(CCN2C(=O)C3C4C=CC(C4)C3C2=O)cc1OC (stereo not drawn),43.1
COc1ccc(-c2cc(-n3cccn3)nc(C)n2)c(OC)c1OC,-12.2
COc1ccccc1NC(=O)N1C2CCC1CC(O)(c1cccnc1)C2 (stereo not drawn),30.8
CCCC(=O)Nc1ccc2c(c1)C(=O)N(C)[C@@H]1CC[C@H](CC(=O)N3CCCCC3)O[C@H]1CO2,-1.0
CCC(CC)C(=O)N1CCC2(C1)CN(c1ccccc1)C(=O)CN2C (stereo not drawn),11.8
CN1c2ccc(-c3ccc(C#N)cc3)cc2[C@H]2[C@H](CCN2S(=O)(=O)c2ccc(F)cc2)[C@@H]1CO,13.7
Cn1cc(CN(Cc2ccccc2)Cc2ccncc2)c2cc(F)ccc21,79.3

# Reprinted from the part before: 3 entries; new compounds follow.
canonical_smiles,Tgondii IFNg
CCC(CC)C(=O)N1CCC2(C1)CN(c1ccccc1)C(=O)CN2C (stereo not drawn),11.8
CN1c2ccc(-c3ccc(C#N)cc3)cc2[C@H]2[C@H](CCN2S(=O)(=O)c2ccc(F)cc2)[C@@H]1CO,13.7
Cn1cc(CN(Cc2ccccc2)Cc2ccncc2)c2cc(F)ccc21,79.3
Cc1ccc2ncccc2c1CN1CCN(C)C(C(=O)O)C1 (stereo not drawn),-42.9
O=c1[nH]c(CC2CC2)nc2c1CCN(Cc1cc3n(n1)CCCNC3)C2,-1.5
COc1ccccc1CCC(=O)N1CCC2(CC1)Nc1cccnc1NC2=NC1CCCC1,9.5
O=C(c1ccncn1)N1CCC2(CCCNC2=O)CC1,42.9
COc1ccc(Br)cc1C(=O)Nc1ccc(C(=O)O)cc1,-5.3
Cc1noc(-c2cc(=O)n(CC(=O)Nc3ccc(C(C)C)cc3)c3ccccc23)n1,-31.5
Cn1cnc(CCNC(=O)C[C@@H]2CC[C@@H]3[C@H](COC[C@H](O)CN3C(=O)Nc3ccc(C(F)(F)F)cc3)O2)c1,-36.9
O=c1c2cc(-c3ccccc3)sc2n(Cc2ccccc2Cl)c(=O)n1-c1ccccc1,-46.4
C=CCN1CC[C@@]2(CN(Cc3nccs3)C[C@H]2c2ccccc2)C1=O,-9.2
CCOC(=O)c1nn(CCc2ccccc2)c2c1CN(C(=O)c1ccc3c(c1)OCCO3)CC2,-56.1
CSc1nnc(SCc2cc(=O)oc3cc(O)ccc23)s1,206.9
CCc1nc(CN(C)CC2COc3ccccc3O2)c(C)[nH]1 (stereo not drawn),-6.7

# Next structures:
canonical_smiles,Tgondii IFNg
COc1ccc2c3c(n(C)c2c1)[C@H](CO)N(C(C)=O)CC31CN(Cc2ccc(Cl)cc2)C1,177.9
CCCCC1(Cc2ccccc2)C(=O)c2cccc3c4ccccc4n(c23)C1=O (stereo not drawn),105.6
C=C(C)[C@H]1COc2cc3oc(=O)ccc3cc2O1,-1.4
CCOCC1CC2(COCCN2C(=O)c2ccoc2)CO1 (stereo not drawn),1.2
O=C1c2ccccc2C(=O)N1CN(CCCn1ccnc1)CN1C(=O)c2ccccc2C1=O,24.1
CC1(C)C=C(c2c[nH]c(C3=CC(C)(C)NC(C)(C)C3)c2)CC(C)(C)N1,-8.7
O=C(CC1COCCN1)N1CCN(CCCOc2ccc(F)cc2)CC1 (stereo not drawn),0.7
CC(=O)O[C@@H]1CC[C@@]2(C)C(CC[C@]3(C)C2C(=O)C=C2[C@@H]4[C@@H](C)[C@H](C)CC[C@]4(C)CC[C@]23C)[C@@]1(C)C(=O)O (stereo partly drawn),-40.0
CC(=O)Nc1ccc(CN(C)CC2(CO)CCOCC2)cc1,-21.1
COC(=O)c1sccc1OCc1nnc(-c2ccc(OC)cc2)o1,175.4
Cc1ccc(Cl)cc1NC(=O)C(=O)NCCc1sc(-c2cccc(F)c2)nc1C,7.4
Cc1ccc(NC(=O)N2CCC3(CC2)Nc2ccccc2-n2cccc23)cc1C,134.5

# (cont.)
canonical_smiles,Tgondii IFNg
CN1C(=O)c2cc(NC(=O)c3cnccn3)ccc2OC[C@H]2O[C@@H](CC(=O)Nc3cc(F)ccc3F)CC[C@@H]21,0.8
Cc1c(NCc2cccnc2)cccc1C(=O)NCCN1CCCC1=O,48.2
Cc1ccc(C2(O)CCN(C(=O)CNC(=O)c3nc4ncccn4n3)C2)cc1 (stereo not drawn),-4.6
O=C(C(Cc1ccc(F)cc1)c1ccccc1)N1CCCCC1CN1CCOCC1 (stereo not drawn),34.5
COC(=O)c1c(NC(C)c2ccc(F)cc2)c2cccc(Cl)c2[nH]c1=O (stereo not drawn),-28.0
COC(=O)/C=c1\sc2nc(=O)c(C)nn2c1=O,-46.0
COc1ccc(NC(=O)N[C@H]2CC[C@@H](CCNC(=O)CN3CCOCC3)O[C@H]2CO)cc1,29.2
CC(C)(C)C(=O)NCCc1csc(-c2ccc(Cl)cc2)n1,148.3
COc1ccccc1CNC(=O)C[C@H]1CC[C@H]2[C@H](COc3ccc(NC(C)=O)cc3C(=O)N2C)O1,9.9
Cc1cnc(C(=O)Nc2ccc(N3CCN(C(=O)OC(C)(C)C)CC3)cc2)cn1,-32.7
Cc1cccc(C(C(=O)O)N2CCCC2)c1 (stereo not drawn),-0.4
COC(=O)Nc1cc(C)n(-c2ccccc2)n1,-44.4

# Continued:
canonical_smiles,Tgondii IFNg
Cc1ncsc1C(=O)N1CCCCC1c1ccc2c(=O)n(C)c(=O)n(C)c2n1 (stereo not drawn),-37.0
COC(=O)c1sc(-c2ccc(Cl)cc2)cc1NC(=O)c1ccccc1C(=O)O,62.3
COCCN1CC[C@@H]2C[C@@H](C(=O)N3CCCCO3)O[C@@H]2C1,-6.1
COc1cccc(NC(=O)C2(c3ccccc3)CCCC2)c1,-15.1
CCOc1cccc(CC(=O)N2CCc3c([nH]c4ccccc34)C2c2ccc(Cl)cc2)c1OCC (stereo not drawn),-29.4
COc1ccc(NC(=O)CN2CCC(c3cccc(Cc4ccccc4)n3)CC2)cc1,17.2
Cc1ccc(CN2CC[C@@H](N(C)C(C)C)[C@H]2Cc2ccccc2)s1,-34.9
COCC(=O)N1CCC2C(C[C@@H](Cn3cncn3)N2C(C)=O)C1 (stereo partly drawn),1.4
CC(C)C(NC(=O)C1(c2ccccc2)CC1)c1nnc2n1CCNCC2 (stereo not drawn),1.8
Cc1ccc(-c2nc3c(s2)CN(S(=O)(=O)c2ccc(Cl)cc2)CC3)cc1,23.3
CC(=O)N1CCc2c(nc(C)nc2NCc2nc(C)c3c(n2)CCCC3)C1,-6.3
CN(C)C(=O)n1c(C(=O)C2CC2)cc2c1c1ccccc1n2C,115.3
COC(=O)c1c(NC(=O)c2ccc(Cl)cc2)csc1C,?
CN1CCC2(CN(c3ncccn3)CC23CCN(Cc2cccnc2)CC3)C1=O (stereo not drawn),2.5

# 3 entries picked at random from the list so far, as already listed:
canonical_smiles,Tgondii IFNg
CC(NC(=O)c1ccc(-n2cnnc2)cc1)c1ccccc1-n1cccn1 (stereo not drawn),48.7
CCS(=O)(=O)N1CCc2ncnc(C3CC3)c2CC1,-2.5
C=CCN1CC[C@@]2(CN(Cc3nccs3)C[C@H]2c2ccccc2)C1=O,-9.2

# Bioassay records (PubChem BioAssay)

# Not all compounds are listed (hit frequency here may not be typical).
